N370S GC = qHTS Assay for Inhibitors and Activators of N370S glucocerebrosidase as a Potential Chaperone Treatment of Gaucher Disease; actives 0.092% (n = 330,000); Potency, µM (doses to about 59.4 µM), for the others: at the highest dose activity change, negative = inhibition, usual class: inhibitors; N370S GC spleen homogenate, 4MU-glucoside fluorescence;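 also: 0% = full enzyme activity and -100% = no enzyme basal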
GCN5L2 inh = qHTS Assay for Inhibitors of GCN5L2; GCN5L2 HAT assay, ThioGlo1 CoA-SH fluorescence; actives 0.21% (n = 390,000); Histone acetyltransferase KAT2A (Homo sapiens), Q92830; Potency, µM (highest dose often 58.9 µM), without a hit: top-dose activity change, negative = inhibition, actives largely listed as inhibitors
Target sequence (Q92830 whole entry, looked up): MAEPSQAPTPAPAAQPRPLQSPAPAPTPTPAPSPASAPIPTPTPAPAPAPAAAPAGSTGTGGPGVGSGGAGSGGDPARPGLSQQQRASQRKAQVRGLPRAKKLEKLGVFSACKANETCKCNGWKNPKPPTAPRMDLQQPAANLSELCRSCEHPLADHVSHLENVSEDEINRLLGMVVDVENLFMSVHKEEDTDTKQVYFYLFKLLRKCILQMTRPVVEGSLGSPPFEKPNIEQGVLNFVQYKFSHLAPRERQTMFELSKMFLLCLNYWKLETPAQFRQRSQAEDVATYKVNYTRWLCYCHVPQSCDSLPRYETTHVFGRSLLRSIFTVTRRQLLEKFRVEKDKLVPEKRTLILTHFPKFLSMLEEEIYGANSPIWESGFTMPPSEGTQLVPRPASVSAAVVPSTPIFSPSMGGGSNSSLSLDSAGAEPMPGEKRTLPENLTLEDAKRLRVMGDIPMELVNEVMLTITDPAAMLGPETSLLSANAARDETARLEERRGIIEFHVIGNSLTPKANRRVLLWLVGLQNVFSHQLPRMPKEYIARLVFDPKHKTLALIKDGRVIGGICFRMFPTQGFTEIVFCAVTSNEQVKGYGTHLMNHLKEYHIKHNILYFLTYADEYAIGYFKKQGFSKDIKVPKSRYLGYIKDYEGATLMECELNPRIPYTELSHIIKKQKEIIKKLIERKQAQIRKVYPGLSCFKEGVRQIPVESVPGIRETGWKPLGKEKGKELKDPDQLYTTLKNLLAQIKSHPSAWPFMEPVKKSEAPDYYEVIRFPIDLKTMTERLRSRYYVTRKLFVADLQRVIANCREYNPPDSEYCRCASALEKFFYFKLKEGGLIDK
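Fluorescence readout, Ex340nm/Em540nm: ThioGlo1 (50uM final) reacts with free CoA thiol released as 20nM GCN5L2 acetylates H3(1-25) peptide (75uM) using acetyl-CoA (70uM). Compound and enzyme sat 15 min beforehand; 20 min room-temperature reaction.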
Starred values were filed as active, the others as inactive; ? = inconclusive; · = no result given; & = joins results of further samples; [ ] = another dose, or the depositor's remark. Calls follow the shape of the dose curve; as a rule, active = well fitted curve in the direction sought with a large enough effect; inconclusive = small, poorly fitted or top-dose-only effect, or another doubt; inactive = no such curve, though single readings can be large; an effect the other way counts as inactive or inconclusive. Unless noted, % is scaled to controls: 0 for no effect and ±100 for the full control effect; potency is read from the fitted curve at half-maximal effect. This is a subset; most or all hits stand in other tables.

Each structure is followed by: GCN5L2 inh	N370S GC
CCN(CC)C(=O)[C@H]1C[C@H](CC(=O)NCCc2ccccn2)C(=O)N2CCc3c([nH]c4cc(-c5ccco5)ccc34)[C@]12C
→ -6%	·
O=C(CSc1nc2[nH]ncc2c(=O)[nH]1)c1ccccc1
→ 15%	-7%
Cc1ccc(N2C(=O)CCSC23C(=O)N(Cc2ccccc2)c2ccccc23)cc1 (stereo not drawn)
→ 1%	·
CCCNC(=O)NC(=O)CSc1nnc(C)n1N
→ 1%	-1%
CCN(CC)S(=O)(=O)c1ccc(NC(=O)COC(=O)c2c[nH]c(=O)[nH]c2=O)cc1
→ -6%	-10%
COc1ccc(OC)c(S(=O)(=O)NCCO)c1
→ ?	4%
CC(C)(C)c1ccc(C(=O)NCC(=O)N/N=C/c2ccccc2OCC(=O)O)cc1
→ -1%	1%
CCOc1ccc(OCCOCCN2CCCC2)cc1
→ 2%	0%
CC(=O)c1ccc(OCc2cc(C(=O)N(C)CCOc3ccc(C)cc3)no2)cc1
→ -13%	-2%
COc1ccc(-c2nnc3sc(CN4C(=O)c5ccccc5C4=O)nn23)cc1
→ 1%	-6%
Cc1cccc(C(=O)OCC(=O)NC(C)CCc2ccccc2)c1O (stereo not drawn)
→ 10%	0%
O=C(Nc1ccccc1)Nc1ccc2ccccc2n1
→ -1%	-13%
CC(C)N(C(=O)[C@H]1CC(CC(=O)NCCc2ccccn2)C(=O)N2CCc3c([nH]c4ccccc34)[C@]12C)C(C)C (stereo partly drawn)
→ 1%	·
Clc1cccc(N/N=C/c2ccc(N3CCOCC3)s2)c1
→ -10%	-21%
O=C(CC(C(=O)O)N1CCOCC1)Nc1ccc(Cl)cc1 (stereo not drawn)
→ 1%	8%
CCCCCCC1CC(CC(=O)Nc2ccc([N+](=O)[O-])cc2)C(=O)O1 (stereo not drawn)
→ 36%[activator]	-15%
COc1ccc(/C=C/c2nnc(NC(=O)COc3ccccc3)s2)cc1
→ -3%	17%
NC(=O)C1Cc2ccccc2CN1S(=O)(=O)c1ccc(Cl)s1 (stereo not drawn)
→ 2%	-7%
COc1ccc(Cn2ccnc2SCC(=O)Nc2cccc(NC(C)=O)c2)cc1
→ -1%	-16%
Cn1nc2c3cc(F)ccc3n(Cc3ccc(F)cc3)cc-2c1=O
→ 1%	-8%
O=C(O)COc1ccc2c3c(c(=O)oc2c1)CCCC3
→ -6%	2%
CCCCn1c(-c2ccsc2)nc2c1c(=O)[nH]c(=O)n2CCC
→ -5%	9%
CCN1C(=O)C2(C(C#N)=C(N)Oc3n[nH]c(-c4ccc(Cl)cc4)c32)c2ccccc21 (stereo not drawn)
→ 0%	0%
O=C(Cn1nc(C(F)(F)F)c2c1CCC2)NCc1ccc(Cl)cc1
→ -4%	-12%
CC(C)(C)C(=O)NC(Nc1cccc2cccnc12)C(Cl)(Cl)Cl (stereo not drawn)
→ 0%	8%
CC1CCc2ccccc2N1C(=N)N(C)C (stereo not drawn)
→ -8%	7%
COc1ccc(-c2c(C)n([O-])c(C)c(C)[n+]2=O)cc1OC
→ -4%	-8%
O=C(Nc1nnc(S(=O)(=O)N2CCCCCC2)s1)c1ccccc1
→ -1%&-7%	2%
O=C(Nc1cccc(S(=O)(=O)N2CCCC2)c1)c1cc(=O)[nH]c2ccccc12
→ -1%	·
C[C@@]12CCC=C[C@H]1[C@H](c1ccoc1)N(Cc1ccccc1)C2=O
→ -5%	0%
O=C(COC(=O)/C=C/c1nc2ccccc2s1)Nc1cccc(Cl)c1Cl
→ 0%	-3%
O=C(COC(=O)C1CCN(c2ccc(C(F)(F)F)cn2)CC1)NCCc1ccccc1
→ 0%	2%
Cc1nc(-c2nnc(SCC(=O)Nc3cc(Cl)cc(Cl)c3)n2C)cs1
→ -2%	2%
O=C(COc1ccc(Cl)cc1)Nc1cnn(Cc2c(Cl)cccc2Cl)c1
→ 1%	2%
CSc1sc2ccccc2[n+]1CCCS(=O)(=O)[O-]
→ -6%	3%
COC(=O)c1ccc(NC(=O)COc2ccc(S(=O)(=O)NC(C)C)cc2)cc1
→ -4%	-14%
Cc1ccc(NC(=O)COC(=O)C2CCC2)cc1S(=O)(=O)N1CCCCC1
→ 1%	-2%
Cc1ccc(C(=O)COC(=O)c2cc(=O)[nH]c3ccccc23)cc1
→ -5%	5%
COc1ccc(CN(C)C(=O)c2ccc(NS(=O)(=O)c3ccc(F)cc3)cc2)c(OC)c1
→ -6%	-7%
CCn1cc(C(=O)NCc2ccc(OC)cc2)c(=O)c2ccc(C)nc21
→ -7%	-14%
CCOC(=O)Cn1cnc2c(nnn2-c2ccc(F)cc2)c1=O
→ -26%	-2%
Cc1cccn2c(CN(C)CCC3CCCCO3)c(C(=O)N3CCCCC3)nc12 (stereo not drawn)
→ 2%	0%
COc1ccc(OC)c2sc(NC(=O)C(C)C)nc12
→ -5%	11%
Cc1cccc(NC(=O)c2sccc2-n2cccc2)c1C
→ -6%	-1%
CC(=O)Nc1ccc(N2C(=O)CC(N3CCN(Cc4ccc5c(c4)OCO5)CC3)C2=O)cc1 (stereo not drawn)
→ -4%	2%
CN(C)c1ccc(NC(=O)c2sc(SCC(=O)Nc3ccc(Br)cc3)nc2N)cc1
→ -10%	16%
C/C(=N/NC(=O)c1ccccn1)c1ccncc1
→ 4%	-7%
C/C(=C\C#N)n1nc(C)cc1N
→ -2%	1%
CCC(=O)c1ccc(OCC(O)Cn2c(C)nc3ccccc32)cc1 (stereo not drawn)
→ 2%	0%
Cc1c(C(=O)OC(C)C)sc2nc[nH]c(=O)c12
→ -1%	-2%
COc1cc(C(=O)Nc2scc(-c3ccc(C)cc3)c2C(=O)O)cc(OC)c1OC
→ -14%	-9%
COC1=C2C[C@H](C)C[C@H](OC)[C@H](O)[C@@H](C)/C=C(/C)[C@H](OC(N)=O)[C@@H](OC)/C=C\C=C(\C)C(=O)NC(=CC1=O)C2=O
→ 11%	8%
CC1CCCC(N2CCN(C(=O)c3cccc(F)c3)CC2)C1 (stereo not drawn)
→ -4%	1%
C[C@H](CO)N1C[C@H](C)[C@@H](CN(C)Cc2ccccc2)Oc2c(NS(=O)(=O)c3ccc(F)cc3)cccc2C1=O
→ -8%	·
O=C(CCc1nnc(CCC2CCCCC2)o1)NCCn1cccn1
→ -7%	-14%
COc1ccc(-c2noc(-c3ccccc3C(=O)Nc3cccnc3)n2)cc1OC
→ -18%	7%
COc1cc2cc(C(c3nnnn3C3CCCC3)N3CCCCC3)c(=O)[nH]c2cc1OC (stereo not drawn)
→ -13%	4%
N=C(CC1CC(=O)NC(=O)C1)C1=C(O)CCCC1=O
→ -7%	2%
Cn1c2ccccc2c2cnn(CC(=O)Nc3ccccc3C(F)(F)F)c(=O)c21
→ -6%	·
O=C(Nc1ccc(F)cc1)Nc1nnc(-c2ccccc2)o1
→ -3%	-1%

By substructure: the entries above containing a CF3 group (three)
Each structure is followed by: GCN5L2 inh	N370S GC
O=C(Cn1nc(C(F)(F)F)c2c1CCC2)NCc1ccc(Cl)cc1
→ -4%	-12%
O=C(COC(=O)C1CCN(c2ccc(C(F)(F)F)cn2)CC1)NCCc1ccccc1
→ 0%	2%
Cn1c2ccccc2c2cnn(CC(=O)Nc3ccccc3C(F)(F)F)c(=O)c21
→ -6%	·

Additional structures
Each structure is followed by: GCN5L2 inh	N370S GC
CC(=O)N1CCN(C(=O)CSc2cc(C)c(Br)cc2C)CC1
→ -25%	2%
CCOC(=O)Nc1nnc(CCc2ccccc2)s1
→ -1%	5%
CCOc1ccc(CN2CCN(Cc3c[nH]c4ccccc34)CC2)cc1
→ ?	-21%
Cc1ccc(NC(=O)/C(=C/c2cccs2)NC(=O)c2ccco2)c(C)c1
→ -9%	2%
CCOC(=O)C1CCN(c2cc3c(cc2NC(=O)c2ccc(F)cc2)n(C)c(=O)n3C)CC1
→ -21%	-13%
Cc1ccc(CNC(=O)CCC(=O)Nc2nnc(C)s2)cc1
→ -3%	-13%
COC(=O)CNc1nc(Cl)nc(Nc2ccc(C)cc2)n1
→ -2%	2%
CN1CCN(S(=O)(=O)c2ccc(CNC(=O)c3ccccc3)s2)CC1
→ -1%	2%
COc1ccc(NC(=O)Nc2nccs2)cc1
→ -18%	-6%
O=C(CC1C(=O)NCCN1C/C=C/c1ccccc1)NCCCC1CCCC1 (stereo not drawn)
→ 12%	15%
CCCCn1nnnc1SCC(=O)Nc1ccc(C)cc1
→ -3%	2%
COC(=O)c1ccc(/C=N/n2c(C)nc3ccccc3c2=O)cc1
→ -10%	-1%
CCC(C)(C)C(=O)Nc1cccc(Cl)c1C
→ 2%	-10%
CC(NC(=O)c1cc2cc(F)ccc2[nH]1)c1ccccc1 (stereo not drawn)
→ -13%	-1%
CC(C)(C)OC(=O)NCCCCCNC(=O)c1[nH]cnc1C(=O)Nc1nccs1
→ 4%	·
COc1ccc(C(=O)CC(=O)C(=O)Nc2cccc(F)c2)cc1
→ 6%	-10%
CCn1cc2nc(SCC(=O)Nc3ccc(OC)cc3OC)n(Cc3ccc(OC)cc3)c(=O)c2n1
→ 1%	2%
O=C(O)COCC(=O)Nc1ccc(Oc2ncnc3cc(Cl)ccc23)nc1
→ -1%	7%
Cc1ccc(Cl)cc1N1CCN(S(=O)(=O)c2ccc3c(c2)CC(C)N3C(=O)C2CCC2)CC1 (stereo not drawn)
→ -17%	·
COC(=O)c1ccc(S(=O)(=O)N2CCOCC2)o1
→ -4%	-4%
CCN(CC)C(=S)NC(=O)C12CC3CC(CC(C3)C1)C2
→ -3%	-5%
COc1ccc(CNC(=O)Cn2nc(-c3ccc4c(c3)OCCO4)ccc2=O)cc1
→ -2%	-4%
CCOC(=O)C1CCN(S(=O)(=O)c2ccc(C)cc2)CC1
→ -4%	6%
Cc1cc(NC(=O)/C=C/c2ccccc2)no1
→ -4%[0.501 µM]	0%
COc1ccc(CCn2c(=N)c(C(=O)NCc3ccco3)cc3c(=O)n4ccccc4nc32)cc1
→ 21%	2%
Cc1ccc(NC(=O)c2ccccc2)cc1-n1cnnn1
→ -1%	-7%
Cc1cccc(Nc2ncnc3ccccc23)c1
→ -2%	-3%
O=S(=O)(NCCSc1nnnn1-c1ccccc1)c1cccs1
→ -17%	3%
CC(C)C(=O)Nc1ncc(Cc2ccc(Cl)cc2)s1
→ -2%	10%
CNC(=O)c1ccc(=O)n(Cc2cccc(C(F)(F)F)c2)c1
→ 1%	-1%
CC1(C)CC(=O)C=C(NCCN2CCN(C(=O)Nc3ccc(Cl)c(Cl)c3)CC2)C1
→ -4%	-2%
CC1(C(=O)OCC(=O)Nc2nc(-c3ccc(F)c(F)c3)cs2)CC1(Cl)Cl (stereo not drawn)
→ -9%	9%
COc1cc(/C=N/NC(=O)c2cnn3c(C)cc(-c4ccccc4)nc23)ccc1O
→ -2%	21%
C=CCN1/C(=C(\C#N)C2=NS(=O)(=O)c3ccccc32)N(C)c2ccccc21
→ -6%	4%
CSc1nc2[nH]ncc2c(=O)n1-c1ccccc1
→ 0%	-9%
Cc1ccc(CNC(=O)C(=O)NCC2CCCO2)cc1 (stereo not drawn)
→ -3%	23%
O=C(Nc1ccc(Br)cc1)N1CCCCCC1
→ -19%	-2%
CN1CCN(C(=O)c2cc(Cl)ccc2NC(=O)c2ccc(Cl)cc2Cl)CC1
→ -17%	-3%
O=C(NCCCn1ccnc1)c1ccc(S(=O)(=O)N2CCOCC2)cc1
→ -3%	-1%
COc1ccc(/C=C/C(=O)OCC(=O)Nc2cc(C(N)=O)cc(C(N)=O)c2)cc1
→ -13%	5%

Quoted from the results shown for reference:
Each structure is followed by: GCN5L2 inh	N370S GC
CC(C)C(=O)Nc1ncc(Cc2ccc(Cl)cc2)s1
→ -2%	10%
CNC(=O)c1ccc(=O)n(Cc2cccc(C(F)(F)F)c2)c1
→ 1%	-1%
CC1(C)CC(=O)C=C(NCCN2CCN(C(=O)Nc3ccc(Cl)c(Cl)c3)CC2)C1
→ -4%	-2%
CC1(C(=O)OCC(=O)Nc2nc(-c3ccc(F)c(F)c3)cs2)CC1(Cl)Cl (stereo not drawn)
→ -9%	9%
COc1cc(/C=N/NC(=O)c2cnn3c(C)cc(-c4ccccc4)nc23)ccc1O
→ -2%	21%

Profiles, looked up by structure.
Shown for CCCCn1c(-c2ccsc2)nc2c1c(=O)[nH]c(=O)n2CCC : GCN5L2 inh = -5%; N370S GC = 9%
Shown for Cn1nc2c3cc(F)ccc3n(Cc3ccc(F)cc3)cc-2c1=O : GCN5L2 inh = 1%; N370S GC = -8%
Shown for O=C(CSc1nc2[nH]ncc2c(=O)[nH]1)c1ccccc1 : GCN5L2 inh = 15%; N370S GC = -7%

(list continues)
Each structure is followed by: GCN5L2 inh	N370S GC
CNC(=S)SCCOc1ccccc1
→ 3%	-1%
CC(C)C(NC(=O)c1ccccc1F)C(=O)Nc1nccs1 (stereo not drawn)
→ -2%	28%
O=S1(=O)CCN(C(CO)c2ccccc2)CC1 (stereo not drawn)
→ -3%	13%
CC(=O)c1ccc(S(=O)(=O)Nc2ccc(-c3ccc4nncn4n3)cc2)cc1
→ -10%	-5%
COc1ccc(NC(=O)C(NCC(C)C)c2ccccc2)cc1Cl (stereo not drawn)
→ 3%	3%
NC(=O)c1ccsc1NC(=O)CCc1ccccc1
→ -12%	1%

Assay outcomes: PubChem BioAssay, National Center for Advancing Translational Sciences (NCATS)
